T cruzi inh: T. cruzi replication inhibition; T. cruzi beta-gal in NIH3T3, luminescence, 90 h; actives 1.4% (n = 300,000); inhibition, % (no concentration beside the values);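 active = mean inhibition across valid replicates above about 55%, limit read from the data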;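 note: signal also drops with host cell toxicity which is not excluded here; 0% = plate median of DMSO wells and 100% = zero luminescence signal; higher percent means less beta-gal luminescence so fewer parasites; stock transfer was 50 nL into about 50 µL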
Ecoli rRNA inh: inhibits bacterial ribosomal RNA function over humanized ribosomes. GFP signal change (wild-type ribosome), % (no concentration beside the values). AID 720706. E. coli WT GFP vs humanized-ribosome RFP mutants, fluorescence, 24 h; active compounds read low; DMSO median 0, no signal -100. actives 1.6% (n = 350,000);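 active = significant combined selectivity score with lowered wild-type GFP, culture density cut under 30%, mutant RFP and density less affected; inactive = any of these conditions unmet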; note: one replicate is shown; some compounds called inactive have numbers as strong as hits
FGF22 binding: shifts melting point of recombinant human FGF22 | Q9HCT0 | recombinant FGF22 thermal shift, SYPRO orange fluorescence; percent of sucrose octasulfate shift, DMSO zero | calls only at 9.99 µM | actives 1.5% (n = 340,000) | AID 651658;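 active = melting point raised past a set limit in the mean and every replicate; three in four hits are not shown here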
Target sequence (Q9HCT0 whole entry, looked up): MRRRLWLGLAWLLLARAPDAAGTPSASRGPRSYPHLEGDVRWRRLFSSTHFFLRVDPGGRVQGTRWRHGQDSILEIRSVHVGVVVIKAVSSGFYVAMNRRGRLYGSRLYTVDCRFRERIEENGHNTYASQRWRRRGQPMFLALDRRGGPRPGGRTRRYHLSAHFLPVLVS
AF4-AF9 inh: MLL-AF4/AF9 protein interaction inhibition | P42568 | AlphaScreen, biotin-AF4 peptide binding to FLAG-AF9 | inhibition, % at 10 µM | actives 0.47% (n = 350,000);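 active = every replicate reaching a set inhibition limit, whatever the replicate mean, cut at about 25% in these data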;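 note: 0% = plate neutral control median and 100% = total signal loss; the record names both 10 and 1 µM as test concentration; the first replicate is given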
Target sequence (P42568 whole entry, looked up): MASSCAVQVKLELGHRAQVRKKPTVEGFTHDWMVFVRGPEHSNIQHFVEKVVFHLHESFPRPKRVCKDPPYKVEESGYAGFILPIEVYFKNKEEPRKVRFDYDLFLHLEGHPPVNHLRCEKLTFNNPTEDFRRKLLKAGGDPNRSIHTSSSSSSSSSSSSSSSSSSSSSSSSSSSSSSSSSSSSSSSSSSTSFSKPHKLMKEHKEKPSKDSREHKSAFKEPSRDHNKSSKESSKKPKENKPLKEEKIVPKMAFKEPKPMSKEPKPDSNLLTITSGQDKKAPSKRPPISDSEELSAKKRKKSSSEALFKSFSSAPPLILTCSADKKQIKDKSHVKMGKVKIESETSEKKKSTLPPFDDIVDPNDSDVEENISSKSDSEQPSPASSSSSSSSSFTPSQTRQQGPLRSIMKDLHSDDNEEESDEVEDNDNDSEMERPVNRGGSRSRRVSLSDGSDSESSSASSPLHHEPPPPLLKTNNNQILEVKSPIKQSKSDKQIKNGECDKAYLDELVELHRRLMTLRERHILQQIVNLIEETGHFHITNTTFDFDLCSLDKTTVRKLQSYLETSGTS
Ecoli growth: E. coli growth inhibition; Escherichia coli growth, OD600, 23 h; active compounds read low; OD600 absorbance (concentration not given with the values); actives 0.21% (n = 330,000); AID 1053175;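 active = OD600 absorbance below the run mean of sample wells minus 3.6 SD, in any replicate, cut at about 0.56 in these data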;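 note: stock transfer was 300 nL into about 60 µL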
A1 inh: inhibitors of the anti-apoptotic protein A1, read as caspase activation; actives 0.066% (n = 330,000); caspase activation, % (no concentration beside the values); MEF A1-2A-BIM cells, Caspase-Glo 3/7 luminescence, 3 h; percent of clofoctol response, vehicle zero;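 active = over half of replicate activation scores above 10%, or exactly half above 10 with the replicate mean above 10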;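 note: wells of about 30 µL received 50 nL stock; many hits fall short of the cut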
UCH37 inh: inhibitors of human deubiquitinating enzyme UCH37; Q9Y5K5; purified proteasome/UCH37, Ub-AMC cleavage fluorescence; inhibition, % (test concentration not listed); actives 0.33% (n = 330,000); AID 588478;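 active = mean of two replicates above 20%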;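 note: 0% = compound-free wells with enzyme and 100% = wells lacking proteasome; stock transfer was 100 nL into about 20 µL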
Target sequence (Q9Y5K5 whole entry, looked up): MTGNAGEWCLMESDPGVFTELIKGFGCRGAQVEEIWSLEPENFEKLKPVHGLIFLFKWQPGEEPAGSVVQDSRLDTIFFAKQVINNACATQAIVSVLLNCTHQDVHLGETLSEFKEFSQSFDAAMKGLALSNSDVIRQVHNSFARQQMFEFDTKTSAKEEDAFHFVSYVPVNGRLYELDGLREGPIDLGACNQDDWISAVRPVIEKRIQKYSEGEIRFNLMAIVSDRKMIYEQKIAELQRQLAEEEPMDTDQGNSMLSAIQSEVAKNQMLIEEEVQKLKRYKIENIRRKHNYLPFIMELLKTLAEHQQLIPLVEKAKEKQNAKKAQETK
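Material: Human UCH37 enzyme supplied as purified proteasome complex | Schedule: 30 min preincubation with enzyme, 25 min cleavage at room temperature | Detection: AMC fluorescence 355/460 nm | Measure: % inhibition of Ub-AMC cleavage fluorescence | Controls: Wells without proteasome as full block, compound-free enzyme plus substrate as uninhibited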
Beta cell apopt: beta cell apoptosis inhibition. INS-1E cytokine-induced death, ATP luminescence, 48 h; percent of positive-control rescue, neutral wells zero. protection from apoptosis, % (no concentration beside the values). actives 0.8% (n = 300,000);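 active = all replicates at 75% or more, or half of them and the mean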;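 note: 0% = cytokine-treated negative control wells and 100% = positive control rescue; higher means more ATP so stronger rescue from cytokine killing; wells of about 40 µL received 100 nL stock; the first replicate is given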
Ecoli rRNA inh OD600: further read-out of Ecoli rRNA inh, marked with its call; OD600 change, %; measured here: OD600 growth;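 optical density of the mix in the first replicate; 0 = DMSO median and -100 = no signal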
Ecoli rRNA inh RFP: recorded beside Ecoli rRNA inh, whose call it bears; RFP signal change, %; measured here: RFP humanized mutant strains;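 first replicate; 0 = DMSO median and -100 = no signal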
* hit, by the source's call; i = inactive; x = no result given. An excerpt (hit frequency here may not be typical).

SMILES | T cruzi inh | Ecoli rRNA inh | Ecoli rRNA inh OD600 | Ecoli rRNA inh RFP | FGF22 binding | AF4-AF9 inh | Ecoli growth | A1 inh | UCH37 inh | Beta cell apopt
O=C(c1cnc2n(c1=O)CCS2)N1CCc2ccccc21 | -12.6 | -1.4 | 7.0 | -0.8 | i | -2.9 | 0.663 | -0.5 | 2.7 | -2.7
Cc1ccc(-n2c(C)n[nH]c2=S)cc1C | -10.9 | x | x | x | i | -1.6 | 0.68 | 0.9 | 6.2 | -1.5
COc1ccc(Oc2ccccc2C#N)cc1 | -5.0 | -8.2 | -11.3 | -7.8 | i | -0.9 | 0.693 | -0.2 | 2.0 | -1.0
NCCCC(=O)N1c2ccccc2Sc2ccc(Cl)cc21 | -12.7 | 9.5 | -3.0 | 11.1 | i | 1.4 | 0.66 | 2.0 | 1.8 | 0.5
Cc1cc(C(=O)CSc2nnc(-c3cccc(F)c3)n2N)c(C)n1Cc1ccc2c(c1)OCO2 | 30.2 | x | x | x | x | x | 0.712 | -0.2 | 4.5 | 12.3
O=C(NC(=S)NNC(=O)c1ccccc1O)c1ccc(F)cc1 | 15.5 | -48.0 | -72.2 | -13.3 | i | 5.4 | 0.723 | -0.2 | 5.7 | 15.9
CCc1ccc(-n2c(Cn3nc(C(F)(F)F)cc3C)n[nH]c2=S)cc1 | -3.9 | x | x | x | x | x | 0.707 | 0.4 | 5.6 | 0.2
O=C1N=C(N2CCOCC2)SC1=Cc1ccco1 | x | 10.4 | 1.4 | 8.3 | i | -63.2 | 0.668 | x | 10.8 | x
O=C(COC(=O)c1ccc(OC(F)(F)F)cc1)NCCN1C(=O)CSC1=O | x | 4.2 | 17.8 | 0.5 | i | -0.3 | 0.684 | 0.2 | 3.2 | -4.5
COc1ccccc1CCNC(=O)CSc1nc(=O)[nH]c2c1CCC2 | -6.7 | 2.5 | 7.7 | -1.1 | i | -2.5 | 0.686 | -0.4 | 2.3 | -8.1
COc1cc2c(cc1OC)CN(C(=O)C1CCN(S(=O)(=O)c3ccccc3F)CC1)CC2 | 5.9 | -7.4 | -7.9 | -0.5 | i | -1.7 | 0.616 | 0.3 | -0.3 | -3.0
CCON1C(=O)CN(C(=O)OC)C1c1ccc(Cl)cc1Cl (centres undefined) | -2.0 | x | x | x | x | x | 0.654 | -0.3 | -1.0 | -2.6
COC(=O)c1ccccc1NC(=O)c1ccccc1N(C)S(=O)(=O)c1ccccc1 | 13.3 | 3.2 | 3.3 | -6.2 | i | -5.2 | 0.642 | 0.7 | 4.3 | 6.2
CC1CCN(c2c(NCC3CCC(C(=O)N4CCCCC4)CC3)c(=O)c2=O)CC1 (centres undefined) | -13.3 | -0.9 | -7.0 | 0.5 | i | -6.9 | 0.762 | 1.9 | 5.1 | x
Cc1ccc[n+](CC(=O)c2ccc(NC(=O)c3ccccc3)cc2)c1C | -0.9 | 9.6 | 6.0 | 3.2 | i | -6.5 | 0.585 | -0.9 | 4.0 | x
CCN(CC(=O)Nc1c(F)cccc1F)C(=O)Cc1sc(C)nc1-c1ccc(F)cc1 | x | 14.1 | 5.3 | 1.0 | i | 0.7 | 0.667 | x | -0.6 | x
CCOC(=O)C1=CN(CC)CCC1=O | x | 6.5 | 25.1 | 14.8 | i | -1.2 | 0.691 | x | 2.6 | x
FC(F)Sc1ccc(-n2c(-c3ccc(Cl)cc3)c[n+]3c2CCC3)cc1 | 14.1 | -51.5 | -76.6 | -13.6 | i | 2.5 | 0.706 | 0.0 | 3.4 | -1.9
COc1ccc(NC(=O)CSc2nc3c(c(=O)n2-c2ccc(F)cc2)SCC3)c(OC)c1 | 12.5 | x | x | x | x | x | 0.767 | 0.7 | 4.1 | 0.5
O=C(CN(CC1CCCO1)C(=O)CNS(=O)(=O)c1ccc(F)cc1)NCCc1ccccc1 (centres undefined) | 2.5 | -2.8 | -5.3 | -2.3 | i | 2.5 | 0.688 | -0.1 | -0.8 | -3.5

Some of these compounds in order of their number in Ecoli rRNA inh RFP, rising:
structure,Ecoli rRNA inh,Ecoli rRNA inh OD600,Ecoli rRNA inh RFP,FGF22 binding,AF4-AF9 inh,UCH37 inh
O=C(NC(=S)NNC(=O)c1ccccc1O)c1ccc(F)cc1,-48.0,-72.2,-13.3,i,5.4,5.7
COc1ccccc1CCNC(=O)CSc1nc(=O)[nH]c2c1CCC2,2.5,7.7,-1.1,i,-2.5,2.3
O=C(COC(=O)c1ccc(OC(F)(F)F)cc1)NCCN1C(=O)CSC1=O,4.2,17.8,0.5,i,-0.3,3.2

Entries of single compounds, looked up by structure. Order of values: T cruzi inh | Ecoli rRNA inh | Ecoli rRNA inh OD600 | Ecoli rRNA inh RFP | FGF22 binding | AF4-AF9 inh | Ecoli growth | A1 inh | UCH37 inh | Beta cell apopt
Profile of `O=C(c1cnc2n(c1=O)CCS2)N1CCc2ccccc21` = -12.6 | -1.4 | 7.0 | -0.8 | i | -2.9 | 0.663 | -0.5 | 2.7 | -2.7
Profile of `Cc1cc(C(=O)CSc2nnc(-c3cccc(F)c3)n2N)c(C)n1Cc1ccc2c(c1)OCO2` = 30.2 | x | x | x | x | x | 0.712 | -0.2 | 4.5 | 12.3
Profile of `Cc1ccc(-n2c(C)n[nH]c2=S)cc1C` = -10.9 | x | x | x | i | -1.6 | 0.68 | 0.9 | 6.2 | -1.5

Later entries.
SMILES | T cruzi inh | Ecoli rRNA inh | Ecoli rRNA inh OD600 | Ecoli rRNA inh RFP | FGF22 binding | AF4-AF9 inh | Ecoli growth | A1 inh | UCH37 inh | Beta cell apopt
CC(=O)c1sc(NC(=O)COc2ccc([N+](=O)[O-])cc2)nc1C | 13.0 | 10.3 | 3.6 | 3.1 | i | -1.6 | x | 0.3 | x | -1.9
O=C(Nc1nc(-c2ccc3c(c2)OCCO3)cs1)C1CCCC1 | 43.0 | -33.6* | -21.5* | -1.2* | i | x | 0.614 | -0.3 | 0.9 | -7.6
Cc1nn(C)cc1-c1n[nH]c(=S)n1-c1ccc(Cl)cc1 | -4.5 | 9.1 | 5.3 | -0.5 | i | -16.2 | 0.693 | 0.6 | 3.1 | 1.7
CC1Cc2ccccc2N1C(=S)Nc1ccc(S(N)(=O)=O)cc1 (centres undefined) | 20.3 | x | x | x | x | x | 0.725 | -0.3 | 4.3 | 0.2
Cc1ccc2[nH]c(-c3ccccc3)cc(=O)c2c1 | -4.8 | 4.9 | 0.0 | -3.4 | i | x | 0.651 | 0.0 | -8.6 | 28.2
CC(C)c1nnc(NC(=O)CCC(=O)NC2CC2)s1 | -7.9 | 11.9 | 12.9 | -2.4 | i | -1.7 | 0.708 | 1.0 | 3.4 | x
CC(C)CC1NC(=O)c2ccccc2-n2c1nc1ccccc1c2=O (centres undefined) | x | 16.9 | 20.8 | 6.1 | i | -6.0 | x | -0.5 | x | -6.5
COc1ccc(N(C(=O)c2ccco2)C(C(=O)NC2CCCC2)c2ccc(N3CCOCC3)cc2)c(OC)c1 (centres undefined) | 11.3 | -1.5 | 8.5 | -1.5 | i | 0.7 | 0.695 | -0.2 | -0.1 | -2.6
CC(=O)NC(CC(=O)NCCN1C(=O)S/C(=C\c2ccccc2)C1=O)c1ccccc1 (centres undefined) | -14.4 | 6.1 | 6.4 | 2.2 | i | -13.6 | 0.694 | 0.4 | 5.7 | -4.2
COc1ccc(-c2noc(CSc3nnc(Cc4ccccc4)n3-c3ccc(Cl)cc3)n2)cc1 | 30.3 | x | x | x | x | x | 0.694 | 0.2 | 0.6 | -3.1
CC(=O)c1sc(Nc2nc(C)cc(C)n2)nc1C | -1.7 | x | x | x | x | x | 0.683 | 1.2 | -0.3 | -10.7
Cc1ccc(S(=O)(=O)NC(C)C(=O)OCC(=O)N(C)c2ccccc2)cc1 (centres undefined) | x | 9.3 | 10.7 | -0.6 | i | 1.1 | 0.716 | 1.4 | 1.7 | -2.0
O=C(Nc1nccs1)c1ccccc1N=Cc1ccccc1 | -14.1 | x | x | x | x | x | 0.786 | 0.6 | -305.6 | -4.5
COc1ccc2c(c1)C(=NO)c1cc(OC)ccc1-2 | 8.1 | x | x | x | x | x | 0.708 | 0.2 | 2.9 | -4.3
COc1cccc(CC2CC(=O)N(CCc3ccc4c(c3)OCO4)C2=O)c1 (centres undefined) | 17.3 | x | x | x | x | x | 0.749 | -1.4 | 2.9 | x
Cc1cc(/C=N/O)c(C)n1-c1ccccc1 | -3.0 | 5.1 | 6.0 | 4.8 | i | -1.0 | x | 1.0 | x | 5.6
OCC1(Cc2ccc(F)cc2)CCCN(Cc2ccc(F)cc2Cl)C1 (centres undefined) | 21.3 | -54.0 | -81.0 | -13.4 | i | -0.7 | 0.653 | -0.4 | 1.4 | -2.7
O=C(CCC(=O)NC1CCCCCC1)Nc1nnc(C(F)(F)F)s1 | -3.2 | x | x | x | x | x | 0.751 | 0.0 | -2.7 | -1.3
O=C(Nc1ccn(-c2ccccc2)n1)c1ccccc1Br | -0.2 | -3.8 | -3.1 | -4.0 | i | -0.6 | 0.616 | -2.0 | 0.3 | -4.7
O=C(CNC(=O)c1cccs1)Nc1ccncc1 | -5.6 | 3.1 | 8.2 | -1.1 | i | 1.0 | 0.695 | 0.6 | 1.0 | -0.3
CCOc1ccc(Br)cc1S(=O)(=O)Nc1ccc(N2CCOCC2)cc1 | -2.4 | -3.3 | 8.7 | -2.6 | x | x | 0.719 | 1.2 | 1.1 | -6.8
Cc1nc2sc(C(c3ccco3)N3CCN(c4ccccc4)CC3)c(O)n2n1 (centres undefined) | -12.5 | 12.3 | 1.9 | -13.1 | i | 1.1 | 0.779 | 0.5 | 3.6 | -0.7
Cc1c(OC(C)C(=O)NCc2ccccn2)ccc2c3c(c(=O)oc12)CCC3 (centres undefined) | 12.9 | -10.3 | -7.7 | 0.8 | i | -0.6 | 0.696 | -0.4 | -65.6 | -0.1
Cc1ccccc1NC(=O)NCCCCc1ccccc1 | 4.3 | 4.2 | 9.0 | -3.4 | i | -7.3 | 0.71 | -1.2 | 5.1 | 2.0
OC(c1ccccc1)C(O)c1ccccc1 (centres undefined) | -2.1 | 11.4 | 8.3 | -1.5 | i | -0.5 | 0.625 | 1.9 | 5.1 | 2.6
C=C(C)Cn1c(CCNC(=O)C(C)(C)C)nc2ccccc21 | -6.6 | x | x | x | x | x | 0.691 | 0.2 | 3.0 | 0.2
COc1cc(-c2nnc(COC(=O)CSCC(=O)Nc3cc(C)on3)o2)cc(OC)c1OC | -9.9 | 1.7 | -4.4 | -3.0 | i | 3.7 | 0.635 | 0.2 | 4.5 | x
Fc1cc2[nH]c(=S)[nH]c2c(Br)c1N1CCSCC1 | 15.7 | -38.6 | -49.0 | -10.6 | i | 3.1 | 0.669 | 0.2 | 3.0 | 5.1
COc1ccc(-c2cc(-c3ccccc3)n3ncnc3n2)cc1 | -5.7 | x | x | x | x | x | 0.726 | 2.0 | -325.2 | 3.6
O=C(O)c1ccc(OCC(F)(F)F)nc1 | -8.4 | 2.1 | 10.2 | -2.1 | i | 1.0 | 0.694 | 0.8 | 4.5 | -3.3
C(=C\n1nnc2ccccc21)/c1ccccn1 | 3.4 | -5.9 | 2.4 | 4.5 | i | 5.2 | x | -10.7 | 4.0 | 4.2
CCCN1CCN(S(=O)(=O)c2ccc(-c3cc(C)no3)s2)CC1 | -9.4 | 0.2 | 1.7 | -4.7 | i | 1.7 | 0.688 | -1.7 | 5.8 | 1.0

Compound activity from PubChem.
